Assay outcomes as filed in PubChem.
TRPML1 inh: qHTS for Inhibitors of the Human Mucolipin Transient Receptor Potential 1 (TRPML1); Mucolipin-1 (Homo sapiens), Q9GZU1; TRPML1-inducible cells, Ca2+ dye fluorescence, FDSS; hits give low values; inhibition of EC80 agonist-evoked calcium signal; activity change, negative = inhibition, % (concentration not given with the values); 390,000 tested, 0.02% active; AID 624415, 2012; in the data active means activity change below about -50%; inconclusive means about -30% to -50%; inactive means above about -30%;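 note: stimulus is agonist 54-4 at its EC80 concentration; % is set by controls: 0 for no effect and ±100 for the full control effect; compound concentration not given in the record; the text of the record puts the active cut at -80%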
Target sequence (Q9GZU1 whole entry, looked up): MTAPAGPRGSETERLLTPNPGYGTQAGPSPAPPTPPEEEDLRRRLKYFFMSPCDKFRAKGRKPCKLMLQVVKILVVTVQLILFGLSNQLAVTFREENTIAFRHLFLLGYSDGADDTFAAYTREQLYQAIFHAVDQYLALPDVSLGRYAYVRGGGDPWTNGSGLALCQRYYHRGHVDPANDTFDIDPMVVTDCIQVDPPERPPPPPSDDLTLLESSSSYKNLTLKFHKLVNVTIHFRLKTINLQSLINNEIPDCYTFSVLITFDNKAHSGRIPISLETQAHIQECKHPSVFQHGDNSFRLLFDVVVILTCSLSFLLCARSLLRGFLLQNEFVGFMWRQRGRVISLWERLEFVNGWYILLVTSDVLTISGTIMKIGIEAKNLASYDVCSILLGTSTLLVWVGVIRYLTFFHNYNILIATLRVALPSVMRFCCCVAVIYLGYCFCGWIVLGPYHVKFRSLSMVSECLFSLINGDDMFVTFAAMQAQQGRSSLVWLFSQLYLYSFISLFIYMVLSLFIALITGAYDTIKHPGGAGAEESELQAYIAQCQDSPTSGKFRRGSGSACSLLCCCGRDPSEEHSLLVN
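TRPML1-DL cells, Tet-induced overnight (~16 h, 37 °C) at 1,500 cells/well, were loaded with Ca8 no-wash dye plus quencher for 45-90 min at room temperature. Compounds were pinned during FDSS kinetic reading; agonist 54-4 at EC80 (4 uM final) then added.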
Menin MLL FP FL: qHTS Assay for Inhibitors Targeting the Menin-MLL Interaction in MLL Related Leukemias: Competition With Fluorescein Labeled MLL-derived Peptide. Fluorescence polarization, fluorescein-MLL peptide displacement from menin. FP activity change, % at 61.4 µM. 290,000 tested, under 10 active. AID 1766, 2009; inconclusive = falling polarisation curve, or a change in total fluorescence; inactive = total fluorescence flat and polarisation flat or rising; no compound was filed as active; the % refers to the polarisation; negative = inhibition;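 note: % of control where 0% means no effect; inhibitors lower the polarisation; unlabelled MLL peptide was the positive control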
gsp agonist: qHTS for Agonist of gsp, the Etiologic Mutation Responsible for Fibrous Dysplasia/McCune-Albright Syndrome: qHTS. gsp mutant cells, cAMP HTRF, 30 min; control for the full effect not named in the record. Potency, µM (top dose mostly 76.9 µM), for inactives: top-dose activation (cAMP increase), actives largely listed as activators. 340,000 tested, 0.13% active. AID 624287, 2012; active = well fitted activation curve with a large enough effect; inconclusive = small, poorly fitted or top-dose-only effect, or another doubt; inactive = no such curve, though single readings can be large or run the other way; cell line not stated here;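 note: phosphodiesterase inhibitor Ro 20-1724 added with compounds to block cAMP breakdown; potency is the fitted concentration of half-maximal effect; nearly all actives have a fitted effect of over 60% in size; about a fifth of the inactives were tested at one dose only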
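Cells stably selected in G418 were plated at 2000/well, grown 16-24 hr, then given compounds in DMSO with the PDE inhibitor […] (300 uM solution added) for 30 min at 37C; cAMP was read by HTRF.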
TRPML1 ag: qHTS for Agonists of the Human Mucolipin Transient Receptor Potential 1 (TRPML1). TRPML1-expressing cells, Ca2+ dye fluorescence, FDSS; host cell line not named in the record; reference of the full effect not given here. activation, % (concentration not given with the values). 410,000 tested, 0.12% active. AID 624414, 2012; in the data active = activation above about 50%; inconclusive = about 30% to 50%; inactive = below about 30%; note: 0% is about no effect; the text of the record puts the active cut at 80%
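Calcium fluorescence on an FDSS kinetic reader gave the read-out. Tet-induced TRPML1-DL cells were plated overnight, dye-loaded (Ca8 with quencher, 45-90 min, room temperature, dark), then read 110 s after compound addition, and again 110 s after 4uM final 54-4 (EC80).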
gsp antag: qHTS for Antagonists of gsp, the Etiologic Mutation Responsible for Fibrous Dysplasia/McCune-Albright Syndrome: qHTS. gsp-mutant cells, cAMP HTRF, 30 min; control for the full effect not named in the record. Potency, µM (titrated, usually from 76.9 µM), without a hit: at the top dose activity change, negative = inhibition, hits mostly inhibitors. 340,000 tested, 0.4% active; active = falling curve of any shape with a large fitted effect; inconclusive = falling curve, mostly with a smaller effect; inactive = flat or rising curve; cell line not stated here;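 note: intracellular cAMP measured with PDE inhibitor Ro 20-1724 present during compound exposure; potency is the fitted concentration of half-maximal effect; % is set by controls: 0 for no effect and ±100 for the full control effect; nearly all actives have a fitted effect of over 65% in size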
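Measurement of cellular cAMP by homogeneous time-resolved fluorescence following a 30 min compound exposure at 37C. The PDE inhibitor […] was present throughout; the assay buffer was DPBS with 0.05% BSA and 0.005% Tween 20.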
ClpP mod: qHTS Assay for Activators of ClpP | purified B. subtilis ClpP, FRET peptide cleavage, 20 min | AID 651965, 2013 | Potency, µM (titrated, usually from 57.5 µM), without a hit: at the highest dose activity change, negative = active | ATP-dependent Clp protease proteolytic subunit (Bacillus subtilis (strain 168)), P80244 | 340,000 tested, 1.9% active; active = well fitted falling curve with a large enough effect; inconclusive = small, poorly fitted or top-dose-only effect; inactive = no such curve, though single readings can be large or run the other way; note: potency is the fitted concentration of half-maximal effect; the source files actives as falling curves though it sought activators and does not explain the sign; nearly all actives have a fitted effect of over 65% in size; many hits overshoot -100%
Target sequence (P80244 whole entry, looked up): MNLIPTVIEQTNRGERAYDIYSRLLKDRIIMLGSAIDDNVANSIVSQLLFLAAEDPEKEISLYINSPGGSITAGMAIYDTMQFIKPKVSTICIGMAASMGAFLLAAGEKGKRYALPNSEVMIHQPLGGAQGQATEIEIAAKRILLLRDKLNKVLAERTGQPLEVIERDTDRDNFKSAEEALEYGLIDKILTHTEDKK
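Purified B. subtilis ClpP, 10 microg/mL final in Tris/HCl pH8 with KCl, BSA, glycerol and Tween-20, cleaved an Abz/nitrotyrosine-quenched decapeptide. Fluorescence (ex 320, em 430) was read at 0 and 20 min at room temperature. Delta was normalized to 5.8 microM ADEP and DMSO/no-enzyme controls.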
* hit, by the source's call; ? = inconclusive; / = no result given; [ ] = remark or other dose.

SMILES	TRPML1 inh	Menin MLL FP FL	gsp agonist	TRPML1 ag	gsp antag	ClpP mod
COc1cccc(-c2ccnc3c(-c4ccc(F)cc4)c(C)nn23)c1	-14	/	/	-0.1	/	1.9%
Cc1ccc2nc3c(nc2c1)-c1ccccc1C3=O	3	1.4	-26%	-0.4	9%	0.2%
CCOC(=O)N1CCN(C(=O)c2ccc3c(=O)n(-c4ccc(OC)cc4)c(=S)[nH]c3c2)CC1	-15	-0.9	5%	-0.9	-13%	-1.8%
Cc1cc(S(=O)(=O)/N=C(\N)c2ccc(C(N)=O)cc2)cc(C)c1F	10	7.3	-7%[15.4 µM]	-0.9	4%	1.2%
COc1ccc(NS(=O)(=O)c2ccc(N3CCCC3)c(NC(=S)Nc3cccc(C)c3C)c2)cc1	-1	8.4	?	0.4	7%	1.1%
COc1ccc(-c2noc(C3CCCN(C(=O)c4ccccc4OC)C3)n2)cc1OC (configuration not stated)	15	3.5	-31%[inhibitor]	-0.1	?	-2.0%
COc1cccc(C(=O)CC2(O)C(=O)N(Cc3ccccc3)c3ccccc32)c1 (configuration not stated)	-4	/	/	-0.5	/	0.1%
COc1cc(NC(=O)CCc2nnc3ccc(N4CCC5(CC4)OCCO5)nn23)cc(OC)c1	4	-13	?	0.1	5%	-28%
O=C(c1cccs1)N1CCN=C1SCc1ccc(Cl)cc1	11	-3.4	-5%[15.4 µM]	2.4	8%	/
CC12CN(C(=S)Nc3ccccc3)CC(C)(CN(C(=S)Nc3ccccc3)C1)C2=O	-12	-0.3	13%	1.1	-1%	/
CCOC(=O)c1ccc(NC(=O)Cn2ncc(Cl)c(Cl)c2=O)cc1	-2	7.8	-19%	-0.5	-17%	/
Cc1ccc(C(=O)CSc2ncnc3sc4c(c23)CCCC4)cc1	-8	-1.3	-7%	-0.4	32%[activator]	0.6%
Cn1c(=O)[nH]c(=O)c2c1nc(NCCCn1ccnc1)n2Cc1cccc(Br)c1	2	0.8	-1%	-0.9	11%	-0.1%
O=C(Cc1ccc(Br)cc1)NCCc1ccc(F)cc1	20	0.3	22%[15.4 µM]	0.1	-1%	-0.3%
O=C(c1cc2cc(Cl)ccc2oc1=O)N1CCOCC1	-3	2.4	-29%	-0.6	-2%	-15%
NC(=O)c1ccccc1OCCOCCOCCOc1ccccc1C(N)=O	-6	-4.9	-43%[inhibitor]	-0.6	7%	-5.9%
O=C(CSc1nccn1-c1cccc(Cl)c1)NC1CCCC1	-10	0.3	-15%	-0.6	0%	-8.3%
CC(O)[C@@]1(O)CC[C@H]2[C@@H]3CC[C@H]4C[C@@H](O)CC[C@]4(C)C3=CC[C@@]21C (some centres not stated)	-21	/	5%	3.2	-2%	-1.5%
Clc1cccc(Cl)c1CSc1nnc(-c2ccncc2)s1	3	1.2	8%[15.4 µM]	7.1	8%	/
Cc1ccc(-n2nc(C)c(C(=O)NCCCN3CCN(c4cccc(Cl)c4)CC3)c2-n2cccc2)cc1	33	/	/	0.8	/	0.6%
COc1ccccc1NS(=O)(=O)c1cccc(NS(=O)(=O)c2ccc(Cl)c(C(=O)O)c2)c1	2	/	1%	0.7	10%	?
COc1ccc(OC)c(/C=C/C(=O)OCC(=O)c2c(N)n(C)c(=O)n(C)c2=O)c1	-7	2.6	?	-0.1	17%	-16%
Cc1nn(-c2ccccc2)c(N2CCCC2)c1/C=N/NC(=O)C1CC1	22	0.2	-5%[15.4 µM]	0.1	-6%	/
Cc1cccc(-c2nsc(SCC(=O)Nc3cc(C)on3)n2)c1	-3	-0.5	7%	0.4	4%	-1.1%
O=C(Nc1cccc(NC(=O)c2sc3ccccc3c2Cl)c1)c1ccco1	17	4.0	19%	2.6	-7%	55%
CC(C)(C)n1nc2c(c1NC(=O)c1cc(Cl)ccc1[N+](=O)[O-])CS(=O)(=O)C2	13	-2.1	15%	-0.4	-16%	0.8%
CCOC(=O)c1sc(NC(=O)CSc2nc(-c3ccco3)cc(C(F)(F)F)n2)c(C#N)c1C	2	6.9	16%	0.0	0%	-0.6%
O=C(Oc1cc(-c2ccccc2)no1)c1cccc(C(F)(F)F)c1	-7	0.3	-15%	0.0	1%	1.3%
CCOc1ccc(-n2c(=O)c3c4c(sc3n(CC(=O)NCC3CCCO3)c2=O)CCCC4)cc1 (configuration not stated)	-12	-3.8	1%	0.6	3%	-3.6%
CCOC(=O)c1c(-c2ccc(C)cc2)csc1/N=C/N(C)C	-7	1.9	-80%[inhibitor]	1.4	-6%	1.7%
CCC(=O)N1CCc2cc(OC)c(OC)cc2C1COc1ccc(F)cc1 (configuration not stated)	-14	2.1	9%	1.5	1%	-0.1%
Cc1ccc(C(=O)Nc2ccccc2NC(=O)c2ccc(C)o2)o1	-4	-1.5	-10%	-1.4	0%	1.3%
COc1ccc(-c2noc(CSc3nnc(-c4ccc(Cl)cc4)n3C)n2)cc1OC	-8	/	/	0.7	/	-2.4%
O=C(CCc1c[nH]c2ccccc12)OCc1ccc(Br)cc1	-3	/	-22%	-0.2	-2%	-3.7%
COc1ccc2cc(C3CC(c4ccco4)=NN3S(C)(=O)=O)c(Cl)nc2c1 (configuration not stated)	24	4.2	8%[15.4 µM]	-0.3	-1%	/
CN(Cc1ccccc1)S(=O)(=O)c1ccc2c(c1)CCC(=O)N2	-9	-2.6	18%[15.4 µM]	-1.1	7%	0.0%
O=C(CSCc1c(F)cccc1Cl)NCc1ccco1	5	1.1	?	-0.4	6%	0.9%
Cc1ccc(NC(=O)Nc2ccc3c(c2)nc(C)n3C)cc1	-9	-5.1	-16%	-0.4	5%	/
N=C1/C(=C\c2ccc(Br)o2)C(=O)N=C2SC(CC(=O)N3CCCCC3)=NN12	6	?	-20%	-0.1	-15%	-1.8%
CN(C(=O)Nc1cccc([N+](=O)[O-])c1)c1ccccc1	-10	/	9%	-0.3	3%	2.1%
O=C(Cn1cc(SCc2cccc(F)c2)c2ccccc21)N1CCCC1	17	/	/	2.2	/	-0.7%
CC(C)(C)N(Cc1ccccc1)C(=O)COC(=O)Cn1cnc2ccccc2c1=O	4	-0.1	?	0.9	-9%	/
CN(Cc1ccccc1)S(=O)(=O)c1ccc(NC(=O)c2cc(=O)c3ccccc3o2)cc1	13	/	/	-0.7	/	-0.7%
COC(=O)c1ccc(/C=C2/SC(=S)N(CCCC(=O)Nc3ccccn3)C2=O)cc1	-12	8.8	8%	-0.5	-4%	1.1%
CCSc1nc(N2CCCCC2)c2c(c1C#N)CCCC2	44	3.6	-6%	-0.1	-18%	?
O=C(Cn1nc(-c2ccccc2)c2ccccc2c1=O)NN1CCOCC1	2	-2.7	-9%[15.4 µM]	-0.2	6%	/
Nn1c(SCC(=O)NC2CCCCC2)nnc1-c1ccccc1	-2	-2.1	3%	3.1	12%	2.8%
Cc1ccc(C(=O)OCC(=O)N2CC(C)OC(C)C2)cc1 (configuration not stated)	2	-3.4	29%[15.4 µM]	0.9	13%	/
CN(C)S(=O)(=O)c1ccc(C(=O)NCC(c2cccs2)N2CCOCC2)cc1 (configuration not stated)	20	/	-2%	0.9	6%	-3.4%
CN(CC(=O)Nc1ccc(Cl)c(C(F)(F)F)c1)C(=O)c1ccc(OCC2CCCO2)cc1 (configuration not stated)	-6	/	-56%[inhibitor]	0.3	-12%	-8.0%
CCOC(=O)c1cnn(-c2cc(C)cc(C)c2)c1N	7	0.6	-28%	0.7	-11%	/
CC(C)NC(=S)N1CCN(C(c2ccccc2)c2ccccc2)CC1	6	2.0	-11%	12	-21%	/
CS(=O)(=O)N(CC(=O)NCCSC1CCCCC1)c1ccc2c(c1)OCO2	-4	1.3	-5%	0.9	1%	-3.6%
O=C(COC(=O)c1ccc(F)c(S(=O)(=O)N2CCOCC2)c1)NC1CC1	10	/	3%	-0.5	13%	0.6%
COc1ccc(CNC(=O)c2cc3c(=O)n(Cc4cccs4)ccc3nc2C)cc1	9	/	/	3.1	/	14µM*
C(CNC1C2CC3CC(C2)CC1C3)CN1CCOCC1 (configuration not stated)	8	1.4	15%	1.0	8%	1.0%
O=S(=O)(c1cccc2nsnc12)N1CCN(c2ccccc2F)CC1	3	-3.3	-3%[15.4 µM]	-0.9	15%	/
Cc1ccc(S(=O)(=O)N(CCCc2c(C)nc[nH]c2=O)c2ccccc2)cc1	5	/	4%[15.4 µM]	0.0	-6%	-2.2%
Cc1cc(C(F)(F)F)nn1CC(=O)NNC(=S)NCC(C)C	1	2.2	-89%[inhibitor]	3.0	-5%	0.4%
O=C(NCC1CCCO1)c1ccc2c(c1)N(Cc1ccccc1)CCS2 (configuration not stated)	-7	/	1%	-1.1	-33%	3.7%

A draw from above in order of SMILES length, rising.
SMILES	TRPML1 inh	Menin MLL FP FL	gsp agonist	TRPML1 ag	gsp antag	ClpP mod
COc1ccc(-c2noc(C3CCCN(C(=O)c4ccccc4OC)C3)n2)cc1OC (configuration not stated)	15	3.5	-31%[inhibitor]	-0.1	?	-2.0%
COc1ccc(OC)c(/C=C/C(=O)OCC(=O)c2c(N)n(C)c(=O)n(C)c2=O)c1	-7	2.6	?	-0.1	17%	-16%
CC(C)(C)n1nc2c(c1NC(=O)c1cc(Cl)ccc1[N+](=O)[O-])CS(=O)(=O)C2	13	-2.1	15%	-0.4	-16%	0.8%

(list continues)
SMILES	TRPML1 inh	Menin MLL FP FL	gsp agonist	TRPML1 ag	gsp antag	ClpP mod
CCC(=O)Nc1sc2c(c1C(N)=O)CCC2	5	3.9	13%	1.8	0%	-23%
COc1ccc(N2CC(NC(=O)COc3ccccc3F)CC2=O)cc1OC (configuration not stated)	-4	/	/	-0.2	/	0.3%
Cc1cc2nnc(SCC(=O)NCc3cccs3)n2c(N)n1	-1	1.0	?	-0.2	17%	1.8%
Cc1ccc(NC(=O)C(=O)NCCc2csc3nc(-c4ccccc4C)nn23)cc1Cl	1	/	/	1.0	/	-4.1%
COc1ccc(OC)c(NC(=O)CSc2ccc(-c3ccco3)nn2)c1	8	/	?	-0.1	-26%	1.2%
CCOc1ccccc1NC(=O)Cn1c(=O)n(CCCC(=O)NCCc2ccc(C)cc2)c(=O)c2ccccc21	19	/	/	-0.7	/	-3.2%
CNC(=O)c1nc[nH]c1C(=O)NC	-6	1.6	6%	-0.4	5%	-0.1%
CCc1cc2c3c([nH]c2cc1S(=O)(=O)NCCCOC)CC(C)(C)CC3=O	9	3.1	5%	-0.5	-11%	-3.7%
Cc1ccc(C(=O)O)cc1NC(=O)c1cccs1	6	-1.6	-7%	-0.8	1%	-0.4%
